# Anaer choline gr – growth inhibitors of anaerobic choline-fed gram-negatives, minimal medium, absorbance; Gram-negative bacterium anaerobic choline minimal medium; hits give low values; many inactives read as strong as hits in the columns shown; calls only; actives 0.2% (n = 55,000); AID 1963822, 2024;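 active means growth z-score on choline under -2 at 7 or 20 h with little or no fall on glycerol, limits in tiers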;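 further: stock transfer was 300 nL into about 50 µL; the organism is E. coli; final concentration not given here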
# Anaer choline gr early – recorded beside Anaer choline gr, whose call it bears; z-score; measured here: choline growth z-score, timepoint 1;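 score of optical density at 7 h as mean of two plates; lower means less growth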
# Active calls of the source: *; i = inactive; & = joins results of further samples. The list is partial (hit frequency here may not be typical).
SMILES,Anaer choline gr,Anaer choline gr early
O=C1CC(C(=O)O)c2ccccc2N1 (configuration not stated),i,0.32
O=C1CC(C(=O)Nc2ccccc2F)n2c(nc3ccccc32)N1 (configuration not stated),i,-1.4
Cc1cc(C)cc(NC(=O)Nc2cc3c(cc2N2CCCC2)n(C)c(=O)n3C)c1,i,-0.24
Cc1ccc(CN2CCCC2c2c(C)noc2C)c(C)c1 (configuration not stated),i,-1
CCOc1ccc(NC(=O)c2oc3cc(C)c(Cl)cc3c2C)c2cccnc12,i,0.31
COc1ccc(NC(=O)CSc2nc3ccccc3n2Cc2ncc(C)c(OC)c2C)cc1,i,0.74
Cc1nc(-c2csc(S(=O)(=O)NCC3CCCO3)c2)sc1C(=O)N1CCCC1 (configuration not stated),i,-0.47
CC(C)c1nc2c(c(C(=O)N3CCCC3c3cccnc3)n1)OCCO2 (configuration not stated),i,1.4
O=C(CN1C(=O)CCCc2ccccc21)NCc1cc(F)cc(F)c1,i,0.23
Cc1ccsc1CN1CCCC1c1cc(C(C)C)no1 (configuration not stated),i,-1.1
COc1cc(Cl)c(C)cc1NC(=O)Cn1cc(C(=O)c2ccncc2)c(=O)c2cc(Cl)ccc21,i,0.68
CC(C)(C)CNC(=O)c1[nH]cnc1C(=O)NC1CC1,i,0.34
Cc1nn(CC(=O)O)c(=O)c2ccccc12,i,0.79
Cc1ccccc1C1C2=C(CC(c3ccccc3)CC2=O)Nc2ncnn21 (configuration not stated),i,0.04
COc1ccc2[nH]c(C(=O)N3CCN(C(=O)COc4ccccc4)CC3)cc2c1,i,0.91
COc1ccccc1N1CCN(C(=O)c2cc(S(=O)(=O)N3CCCCC3)cn2C)CC1,i,-0.8
CCOc1ccc(C(=O)N2CCCC(c3nc(-c4cccc(NC(=O)CC)c4)no3)C2)cc1OCC (configuration not stated),i,0
COCCNC(=O)c1cccc(NC(=O)N2CCCCc3ccccc32)c1,i,-0.62
O=c1oc2cc(O)ccc2cc1-c1nc2ccccc2s1,i,0.12
CCCOc1ccc(C(=O)Nc2cc3c(cc2Sc2ccccc2)n(C)c(=O)n3C)cc1,i,0.78
CCOC(=O)c1cccc(NC(=O)c2cc(-c3ccccn3)n[nH]2)c1,i,-0.01
CCOc1nc2cccnc2n(CC(=O)Nc2ccccc2OC)c1=O,i,0.16
COc1ccccc1OCC(=O)Nc1noc(-c2ccccc2)n1,i,-2.6
c1cc2c(cc1-c1noc(C3CC3)n1)ncn2CCN1CCCC1,i,-1.7
Cc1ccc(C(=O)N2CCC(CCNC(=O)C3CC3)CC2)cc1,i,-0.46
COc1ccc(CCNC(=O)CCS(=O)(=O)c2ccc3nc(C)sc3c2)cc1OC,i,-1.4
CC(=O)NCCc1c[nH]c2ccc(O)cc12,i,0.94
NC(=O)C1CCN(S(=O)(=O)Cc2ccccc2)CC1,i,-0.09
COc1ccc(-n2ccc(=O)c(-c3nc(-c4ccc(F)c(Cl)c4)no3)n2)cc1,i,-0.01
Cc1cc(Sc2ccc(N)cc2)n2ncnc2n1,i,0.96
Fc1cccc(-c2noc(-c3cc(N4CCSCC4)nc4ccccc34)n2)c1,i,0.88
O=C(NC1CC1)C1CCc2sc(C(=O)N3CCCC3)cc2C1 (configuration not stated),i,0.71
CN(C)c1ccc(CN(CC2CCCO2)C(=O)COc2ccc(Br)cc2)cc1 (configuration not stated),i,0.71
CCN(CC)CC#CCOC(=O)C(O)(c1ccccc1)C1CCCCC1 (configuration not stated),i,-2.7&0.27
CCOc1ccc(NC(=O)CCCc2nc(-c3cc4ccc(C)cc4[nH]c3=O)no2)cc1,i,-0.42
Cc1ccc(NC(=O)Nc2nnc(SCC(=O)N3CCC(C)CC3)s2)cc1,i,0.65
CNC(=O)C1CCN(c2nc3ncn(CC(=O)NCc4cccs4)c(=O)c3s2)CC1,i,2.4
Cc1noc2ncnc(N3CCCCC3C)c12 (configuration not stated),i,-0.46
CCC(=O)N1CCCC1c1nc2ccccc2n1CCCCOc1ccccc1OC (configuration not stated),i,0.23
COC(=O)c1cc2oc3ccccc3c2n1Cc1cccc(C)c1,i,-0.16

# Three compounds from above, arranged by count of non-hydrogen atoms, descending:
SMILES,Anaer choline gr,Anaer choline gr early
CNC(=O)C1CCN(c2nc3ncn(CC(=O)NCc4cccs4)c(=O)c3s2)CC1,i,2.4
COc1ccc(-n2ccc(=O)c(-c3nc(-c4ccc(F)c(Cl)c4)no3)n2)cc1,i,-0.01
CC(=O)NCCc1c[nH]c2ccc(O)cc12,i,0.94

# (more compounds)
SMILES,Anaer choline gr,Anaer choline gr early
O=c1oc2cc(OCc3nn[nH]n3)c(Cl)cc2c2c1CCC2,i,0.39
Cc1oc(-c2ccc(Cl)cc2)nc1CN1CCC(C(=O)NCc2ccccn2)CC1,i,-0.61
CCn1nccc1-c1cccc(-c2noc(C(C)Oc3cccc(Cl)c3)n2)c1 (configuration not stated),i,0.52
Cc1cc(C)cc(NC(=O)C2CCCN(C(=O)C3Sc4ccccc4NC3=O)C2)c1 (configuration not stated),i,0
CC1=C(/C=C/C(C)=C/C=C/C(C)=C/C(=O)Nc2ccc(O)cc2)C(C)(C)CCC1,i,-0.33&-0.38&0.75&-0.16
CCOC(=O)CSc1nc2c(sc3ccccc32)c(=O)n1CCc1c[nH]c2ccccc12,i,1.8
Cc1nc(-c2ccc(F)cc2)sc1CCNC(=O)c1ccc(F)c(F)c1,i,-0.54
CCOc1ccccc1-c1nc(-c2ccc3c(c2)Sc2ccccc2C(=O)N3C)no1,i,0.24
Cc1ccc(-c2nc3sc4c(c3c(=O)[nH]2)CCCC4)cc1,i,0.5
CCN1CCN(Cc2nc3nc(C)cc(N4CCCCC4)n3n2)CC1,i,0.11
CC(C)CNC(=O)c1ccc2c(=O)n(CC(C)C)c3nn(CC(=O)NC(C)(C)C)c(=O)n3c2c1,i,2.1
COc1cc(C2CC(=O)Nc3nc(N)[nH]c(=O)c32)ccc1OCc1ccccc1F (configuration not stated),i,0.19
CN(CC(=O)Nc1cc(F)ccc1F)C(=O)c1ccc2c(c1)nnn2C,i,-0.01
O=c1[nH]c2cc(-c3noc(COc4ccc(F)cc4)n3)ccc2n1C1CCCC1,i,-0.84
CCOC(=O)C1CCN(C(=O)c2cc3cc(OCC)ccc3n2C)CC1,i,0.41
CCn1nc(C)c(CCN(C)C(=O)NCC(C)C)c1C,i,-0.38
CCNC(=O)C1CCCN(c2cc(=O)n(C)c(=O)n2C)C1 (configuration not stated),i,-0.24
O=C(COc1cc(O)c2c(=O)cc(-c3ccccc3)oc2c1)OCc1ccccc1,i,0.65
Cc1cc(=O)n2nc(C3CCCCC3)nc2n1CC(=O)Nc1ccc(Br)cc1,i,-0.12
N[C@H](C(=O)O)[C@H]1C[C@@H]1C(=O)O,i,0.46
CCc1ccccc1NC(=O)N1CCCn2nc(C)cc21,i,0.64
CCC(C)Cn1c(CCNC(=O)c2cccc(C)c2)nc2ccccc21 (configuration not stated),i,0.36
CCn1c2c(c3cc(Cl)ccc31)CCCC2=O,i,-0.09
COc1cccc(-n2ccnc(SCC(=O)Nc3ccccc3C)c2=O)c1,i,1.5
COC(=O)/C=C/c1cc(O)ccc1O,i,0.35
Cc1nn2c(N3CCN(C)CC3)cc(C(C)(C)C)nc2c1-c1ccc(F)cc1,i,-1.1
O=C(C1CCCO1)N1CCN(S(=O)(=O)c2ccc3[nH]c(=O)sc3c2)CC1 (configuration not stated),i,-1.6
COc1ccc(CC(=O)Nc2cc3c(cc2SC2CCCCC2)n(C)c(=O)n3C)cc1OC,i,0.02
CCCNC(=O)Cn1ccc2c(SCc3ccc(OC)cc3)nccc21,i,0.03
Cc1ccc(NC(=O)N2CCN(S(=O)(=O)c3ccc4c(ccn4C)c3)CC2)c(Cl)c1,i,1.6
CCC(C)n1c(=S)[nH]c2ccc(Cl)cc2c1=O (configuration not stated),i,-0.92
O=c1n(Cc2c(F)cccc2Cl)nc2c(S(=O)(=O)N3CCCC3)cccn12,i,-0.25
CC[N+](C)(CC)CCC[n+]1c(-c2ccccc2)c2cc(N)ccc2c2ccc(N)cc21,i,-0.52&1.4
c1cncc(-c2nnc3sc(-c4ccc5c(c4)OCCO5)nn23)c1,i,0.69
O=C(c1cccc(N2C(=O)CCS2(=O)=O)c1)N1CCCc2ccccc21,i,-0.11
O=C(Nc1ccccc1)NC1CS(=O)(=O)CC1O (configuration not stated),i,0.89
Cc1ccc(S(=O)(=O)C=CC#N)cc1,i,-3.7
CCn1c(C(=O)NCCc2c[nH]c3ccccc23)cc2cc(S(=O)(=O)N(C)C)ccc21,i,0.04
Cc1ccc(CNC(=O)c2ccc(-c3nc(CCN(C)C(=O)c4ccc(Cl)cc4)no3)cc2)cc1,i,0.36
Cc1ccc(C2=Nc3ccccc3NC(=O)C2)cc1C,i,0.25
CCCCn1c(SCc2nc(-c3ccc4c(c3)OCO4)no2)nc2cc3c(cc2c1=O)OCO3,i,0.12
COc1ccc(CC(=O)NCCc2nc(-c3ccc(OC)cc3)n[nH]2)cc1,i,0.98
Cc1noc(-c2ccc(S(=O)(=O)N3CCC(Cc4ccccc4)CC3)s2)c1C,i,-0.86
CCOc1cc(CNCCSc2nnnn2C)cc(Cl)c1OCc1ccc(F)cc1,i,0.77
CCc1ccc(NC(=O)c2ccc(N3CCCS3(=O)=O)cc2)cc1,i,-1.1
O=C(c1nc(C2CC2)nc2c1OCCO2)N1CCc2ccccc21,i,0.39
Cc1ccc(CNC(=O)CCCn2ncc3ccc(C)cc32)cc1,i,-0.55
Cc1ccc(Nc2nnc(C(C)(C)C)c(=O)[nH]2)cc1,i,-1
COc1ccc(CN2CCCC2c2cc(C)no2)cc1COCC(F)(F)F (configuration not stated),i,0.07
COC(=O)Cn1c(=O)c(=O)n(C)c2cccnc21,i,0.66
Cc1occc1-c1nnc(SCC(=O)NC(C)C)o1,i,-2.2
CCn1c(=O)n(CC)c2cc(NC(=O)CN3C(=O)c4ccccc4S3(=O)=O)ccc21,i,-1.1
Cc1nc(C)c(-c2nc(-c3ccc4c(c3)nc(C)c(=O)n4C3CCCC3)no2)s1,i,0.4
Cc1noc(C)c1C1CCCN1Cc1cn[nH]c1-c1ccccc1 (configuration not stated),i,-0.52
Cc1oc2ccc(O)c(CN3CCCCC3)c2c1C(=O)NCc1ccccc1,i,-1.1
CCCNC(=O)CN1CCn2nc(-c3ccccc3)cc2C1=O,i,0.78
O=C(NCc1cccnc1)c1nc(-c2ccc(S(=O)(=O)N3CCOCC3)cc2)no1,i,-1.3
Cc1ccc(CNC(=O)C2CCN(c3nn4c(=O)c5c(nc4s3)CCCC5)CC2)cc1,i,-0.2
CCOC(=O)c1c(NC(=O)CS(=O)(=O)c2ccc(C)cc2)sc2c1CCC(C)C2 (configuration not stated),i,1.2
Cc1cccc(-c2noc(CSc3nc4cc5c(cc4c(=O)n3Cc3ccccc3)OCO5)n2)c1,i,0.12

# 2 consecutive records from above:
SMILES,Anaer choline gr,Anaer choline gr early
CCOC(=O)c1c(NC(=O)CS(=O)(=O)c2ccc(C)cc2)sc2c1CCC(C)C2 (configuration not stated),i,1.2
Cc1cccc(-c2noc(CSc3nc4cc5c(cc4c(=O)n3Cc3ccccc3)OCO5)n2)c1,i,0.12

# Later entries.
SMILES,Anaer choline gr,Anaer choline gr early
CCc1ccc(NC(=O)NCCn2c(-c3ccc(F)cc3)nc3ccccc32)cc1,i,-1.2
CCc1ccc(S(=O)(=O)c2cnc(N3CCN(c4ccccn4)CC3)nc2N)cc1,i,2.2
CCOC(=O)c1noc2ncnc(Nc3ccc(OC)cc3OC)c12,i,0.19
COc1cccc(CN2C(=O)c3ccccc3CC2(C)C(=O)NCc2ccccc2OC)c1 (configuration not stated),i,0.75
Cc1ccc(NC(=O)Nc2nnc(SCc3cc(=O)n4oc(C)cc4n3)s2)c(Cl)c1,i,-1.6
Cc1cc(NCCCN(C)C)n2nc(C(F)(F)F)c(-c3ccc(Cl)cc3)c2n1,i,0.09
CCOC(=O)c1ccccc1NC(=O)Cc1c(C(=O)O)c(C)cn1C,i,0.24
CC1CCN(CCNC(=O)c2nn(C)c3c2CS(=O)(=O)c2ccccc2-3)CC1,i,0.83
Cc1ccc(NC2=CC(=O)c3sc(C)nc3C2=O)cc1,i,-1
CCCCNC(=O)c1cc(NS(=O)(=O)c2ccc(Br)cc2)cnc1N1CCNCC1,i,-1.6
O=C(NCCN1CCCCC1)C1CCN(c2ncc(-c3ccccc3)cn2)CC1,i,-1.1
Cn1c(=O)n(-c2ccc(F)cc2)c2nc(-c3ccccc3)nc(C(N)=O)c21,i,0.91
Cc1nn(C(=O)C2CC2)c(C)c1S(=O)(=O)N1CCOCC1,i,0.78
COc1ccc(OC)c(CNS(=O)(=O)c2cc(-c3nc(C)c(C)s3)sc2C)c1,i,-0.65
CCN(CC)CCn1c(NCc2ccc(N(CC)CC)cc2)nc2ccccc21,i,-0.42
Cn1c(SCC(=O)c2cn(C)c3ccccc23)nnc1-c1ccc2c(c1)OCCCO2,i,-0.32
NC(=O)C1CCN(C(=O)C2CCN(S(=O)(=O)Cc3ccc(F)cc3)CC2)CC1,i,-0.73
C=Cc1ccc(COc2cc(C(=O)OC)nc3ccc(Cl)cc23)cc1,i,-0.8

# Retrieved by compound from the list above, seven records:
SMILES,Anaer choline gr,Anaer choline gr early
COc1cccc(CN2C(=O)c3ccccc3CC2(C)C(=O)NCc2ccccc2OC)c1 (configuration not stated),i,0.75
CCCCNC(=O)c1cc(NS(=O)(=O)c2ccc(Br)cc2)cnc1N1CCNCC1,i,-1.6
COc1ccc(OC)c(CNS(=O)(=O)c2cc(-c3nc(C)c(C)s3)sc2C)c1,i,-0.65
Cn1c(=O)n(-c2ccc(F)cc2)c2nc(-c3ccccc3)nc(C(N)=O)c21,i,0.91
CCOC(=O)c1ccccc1NC(=O)Cc1c(C(=O)O)c(C)cn1C,i,0.24
Cc1ccc(NC2=CC(=O)c3sc(C)nc3C2=O)cc1,i,-1
O=C(NCCN1CCCCC1)C1CCN(c2ncc(-c3ccccc3)cn2)CC1,i,-1.1

# High-throughput results (PubChem BioAssay)
